# Polio RdRp inh – poliovirus RNA polymerase inhibition. P03300. poliovirus polymerase elongation, fluorescence polarization; stronger effect = lower value. % elongation, % (compound at 16.7 µg/mL). hit rate 0.66% among 150,000. AID 588519; in the data active = % elongation below about 90%; note: some results filed as inactive read as strong as hits
# Target sequence (P03300 1749-2209 limits assumed): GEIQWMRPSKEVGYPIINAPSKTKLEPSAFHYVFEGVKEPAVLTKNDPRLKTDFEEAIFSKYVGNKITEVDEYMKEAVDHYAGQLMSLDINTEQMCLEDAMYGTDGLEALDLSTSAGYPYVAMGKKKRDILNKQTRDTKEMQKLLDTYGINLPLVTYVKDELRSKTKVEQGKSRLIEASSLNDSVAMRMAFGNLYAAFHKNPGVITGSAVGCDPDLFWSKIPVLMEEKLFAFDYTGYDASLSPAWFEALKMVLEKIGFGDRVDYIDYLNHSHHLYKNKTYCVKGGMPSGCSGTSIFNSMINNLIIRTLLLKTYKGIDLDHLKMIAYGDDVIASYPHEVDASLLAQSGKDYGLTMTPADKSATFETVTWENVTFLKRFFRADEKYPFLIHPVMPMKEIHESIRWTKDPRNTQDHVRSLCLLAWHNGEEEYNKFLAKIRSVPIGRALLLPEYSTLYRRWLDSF
# Mtb MbtI inh – inhibitors of Mycobacterium tuberculosis siderophore enzyme MbtI; inhibition, %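 (about 17 µg/mL by stock and volumes)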; AID 493033; purified MbtI enzyme, fluorescence intensity read-out; hit rate 0.89% among 100,000;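 active = above 50% in both replicates, above 80% if mildly self-fluorescent; inactive = the rest, strongly fluorescent compounds included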;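 note: 0% = mean of negative and 100% = mean of positive controls; one replicate is shown; some compounds called inactive have numbers as strong as hits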
# Mtb MenB inh – blocks the Mycobacterium tuberculosis MenB enzyme; P9WNP5; MenB enzyme assay, absorbance read-out; some hits fall short of the stated cut; inhibition, %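 (about 12 µg/mL by stock and volumes)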; hit rate 0.43% among 100,000;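 active = mean of two replicates above 30%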;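 note: 0% = no compound and 100% = wells with inactive enzyme; the first replicate is given; strong numbers were not always called active; inactives centre near -10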
# Target sequence (P9WNP5 whole entry, looked up): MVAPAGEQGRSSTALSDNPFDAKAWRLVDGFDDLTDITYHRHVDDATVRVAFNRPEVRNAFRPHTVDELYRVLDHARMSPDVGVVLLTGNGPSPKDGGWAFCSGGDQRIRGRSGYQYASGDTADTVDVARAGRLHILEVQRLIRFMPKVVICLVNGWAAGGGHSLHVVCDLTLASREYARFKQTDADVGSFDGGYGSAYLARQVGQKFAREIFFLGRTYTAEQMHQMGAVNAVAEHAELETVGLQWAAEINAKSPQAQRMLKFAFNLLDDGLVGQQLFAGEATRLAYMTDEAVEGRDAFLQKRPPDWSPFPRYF
# Polio RdRp inh intensity – recorded beside Polio RdRp inh, whose call it bears; % elongation; measured here: total intensity read-out; formula for this scale not given here;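 total fluorescence in place of polarization; lower means less elongation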
# An asterisk follows results filed as active; nt = not tested or not shown; & = joins results of further samples. Compounds as they come; any-hit rate near 1.8%.
SMILES,Polio RdRp inh,Polio RdRp inh intensity,Mtb MbtI inh,Mtb MenB inh
O=C(CC1Sc2ccccc2NC1=O)OCN1C(=O)c2ccccc2C1=O (stereo not drawn),98,103,4,-35
COc1ccc(CCNC(=O)CSC2=NCCS2)cc1OC,99,104,34,-10
O=C1CC(C(=O)Nc2ccc3c(c2)OCCO3)n2c(nc3ccccc32)N1 (stereo not drawn),102,102,-5,-31
N#CCC(=O)N1CCN(C(c2ccccc2)c2ccccc2)CC1,100,103,-21,-17
Cc1ccccc1Nc1nc(N)nc(Cn2nc(C(=O)O)c3ccccc3c2=O)n1,104,103,-5,-9
C=CCNc1nc(C(=O)O)cs1,100,92,18,0
O=C(OC1CCS(=O)(=O)C1)c1ccc(Br)o1 (stereo not drawn),98,100,3,4
CCOc1cc2[nH]c(=S)n(CCCCC(=O)N3CCCCCC3)c(=O)c2cc1OCC,105,104,-1,-24
CCN(CC)c1cnn(-c2ccc(C(F)(F)F)cc2)c(=O)c1Cl,101,94,-2,2
C=CCc1c(NCCO)nc(C)[nH]c1=O,98,100,-8,0
CC(C)C(c1nnnn1CCc1ccccc1)N1CCCC1 (stereo not drawn),99,101,-1,23
COc1ccc(OCc2nc3ccccc3[nH]2)cc1,106,107,-12,-13
CCOC(=O)c1nn(-c2ccccc2)c(C#N)c1N,102,104,100,-5
CCCCNC(=O)C1CCN(c2nc(OC)nc(OC)n2)CC1,104,102,-9,-7
Cc1n[nH]c(=S)n1/N=C/c1c[nH]c2ccccc12,97,101,68,15
COC(=O)COc1ccc2ccc(=O)oc2c1,99,110,103,3
O=C(CSc1cccc[n+]1[O-])N1CCCCC1,102,99,0,nt
O=C1NC(=O)C(CCc2ccccn2)(CCc2ccccn2)C(=O)N1,104,116,nt,-10
CC(C)c1ccccc1NC(=O)CN1c2ccccc2CC1C (stereo not drawn),101,108,-11,-11
C=CCSc1ccc(OCC(F)(F)F)c(C#N)c1OCC(F)(F)F,109,116,-15,-6
CCCCN(C)C(=O)Cc1ccc(-n2c(=S)[nH]c3ccccc3c2=O)cc1,102,104,4,-24
N#Cc1ccc(S(=O)(=O)N2CCC(N3CCCCC3)CC2)cc1,104,99,2,-16
O=C(COC(=O)c1cc(Cl)nc(Cl)c1)Nc1cccc2ccccc12,98,102,-10,nt
O=C(CN1C(=O)CSC1=O)NC1CCCCC1,103,104,-7,-50
CC(=O)Nc1c(Br)c(C2CC2)nn1-c1ccccc1,104,111,-11,0

# Continuation.
SMILES,Polio RdRp inh,Polio RdRp inh intensity,Mtb MbtI inh,Mtb MenB inh
O=C(NC1(C(F)(F)F)NC(=O)N(Cc2ccccc2)C1=O)c1ccco1 (stereo not drawn),102,100,-4,-5
O=C(CSC(=S)N1CCCC1)c1ccccc1,101,100,1,22
c1ccc(C(CNc2ncccn2)c2ccccc2)cc1,100,107,13,-21
C=CCN(CC(=O)NC1CC1)S(=O)(=O)c1cccc(C(F)(F)F)c1,101,99,-1,-8
Cc1nn(-c2ccccc2)c2c1C=Nc1cc(Cl)ccc1O2,107,98,-9,-14
c1ccc(OCc2nn3cnnc3s2)cc1,99,97,3,15
Cc1nc2c(c(C)nn2C)c(C)c1CCC(=O)NCCCc1ccccc1,102,102,6,-18
Cc1cc(C)cc(-n2c(C)cc(/C=N/NC(=O)CSc3ncccn3)c2C)c1,107,101,13,-80
CSc1ccccc1-c1nnc(NC(=O)Cc2ccccc2)o1,104,105,10,-23
CNC(C)C(O)c1ccccc1 (stereo not drawn),101,99,-7,-6
CC(C)Cc1ccc(S(=O)(=O)NC2CCCCC2C)cc1 (stereo not drawn),104,103,3,-39
O=C(Nc1ccccc1)c1ncn(-c2ccccc2)n1,96,104,-1,-19
S=c1n(CN2CCCC2)nc2c(Cl)cc(Cl)cn12,105,109,9,-34
COC(=O)c1n[nH]c(=O)c2ccccc12,105,105,-12,4
COc1cccc(-c2cc(C(F)(F)F)n3ncc(C(=O)N(C)CCc4ccccn4)c3n2)c1,102,106,-3,-10
O=C1CCC(N2C(=O)c3ccccc3C2=O)C(=O)N1 (stereo not drawn),100&100&99&99,103&101&102&102,-7&2&-6,2&0&-5
O=C(CSc1nnc(C2CC2)n1C1CC1)c1cc(Cl)sc1Cl,100,110,2,-12
COCC(C)n1c(=S)nnc2c3ccccc3[nH]c21 (stereo not drawn),101,96,6,-90
NCc1nc2ccccc2c(=O)[nH]1,100,97,-8,nt
COc1ccccc1CN=C1NC(=O)C(CC(=O)Nc2ccc(OC)c(OC)c2)S1 (stereo not drawn),101,101,-6,-19
CC1(C)OC(=O)C(=C2CCCCCN2)C(=O)O1,107,101,-8,-19
CCC(C)Cn1c(Cc2ccc(OC)cc2)nc2ccccc21 (stereo not drawn),103,104,-6,-27
Cc1[nH]c(=O)[nH]c(=O)c1Cc1cccc2ccccc12,104,100,2,-69
O=C(OC(C(=O)c1ccccc1)c1ccccc1)c1cccc(O)c1 (stereo not drawn),103,105,-16,nt
CCN1CCCC1CNC(C)C(=O)NC1CCCC1 (stereo not drawn),103,102,2,-9

# In the list so far, 5 contain a Cl atom.
SMILES,Polio RdRp inh,Polio RdRp inh intensity,Mtb MbtI inh,Mtb MenB inh
CCN(CC)c1cnn(-c2ccc(C(F)(F)F)cc2)c(=O)c1Cl,101,94,-2,2
O=C(COC(=O)c1cc(Cl)nc(Cl)c1)Nc1cccc2ccccc12,98,102,-10,nt
Cc1nn(-c2ccccc2)c2c1C=Nc1cc(Cl)ccc1O2,107,98,-9,-14
S=c1n(CN2CCCC2)nc2c(Cl)cc(Cl)cn12,105,109,9,-34
O=C(CSc1nnc(C2CC2)n1C1CC1)c1cc(Cl)sc1Cl,100,110,2,-12

# Additional compounds
SMILES,Polio RdRp inh,Polio RdRp inh intensity,Mtb MbtI inh,Mtb MenB inh
CSc1cccc(NC(N)=O)c1,103,103,-8,-6
CC(C)(C)OC(=O)CN1C(=O)S/C(=C/c2cccs2)C1=O,101,100,-4,-50
Fc1cccc(Cl)c1CSc1nnc(-c2c[nH]c3ccccc23)o1,108,100,-3,-48
NC(=O)C1CCN(c2nc3c(S(=O)(=O)c4ccc(Br)cc4)nnn3c3ccccc23)CC1,99,100,2,-8
Cc1cc(C)n2c(Nc3c(C)cccc3C)c(-c3ccc(C)o3)nc2n1,99,114,26,-44
CC1=CC(=O)N(c2ccc(C3CCCCC3)cc2)C1=O,104,95,-3,-19
COc1ccccc1C(=O)Nc1c2c(nn1-c1ccc(Oc3ccccc3)cc1)CSC2,101,104,-2,-20
N#CC1=C(N2CCCCC2)c2cc3c(n2C1=O)CCCC3,108,142,nt,-5
Cc1cc(C(=O)CSc2nncn2C)c(C)n1CCc1ccc(Cl)cc1,106,108,9,-18
O=C(CCCCc1nc2ccccc2s1)Nc1ccccc1,102,104,-2,nt
CC1=C(c2ccccc2)S(=O)(=O)NC1=NCCCN1CC(C)CC(C)C1 (stereo not drawn),101,102,13,-5
O=C(O)C1CCCN1c1ncnc2ccccc12 (stereo not drawn),105,111,nt,-6
CCc1nn(CC(=O)NCCc2ccc(OC)cc2OC)c(=O)c2cc3sc(C)cc3n12,98,102,1,2
Cc1cc(-c2ccccc2)oc2cc3ccccc3c1-2,100,100,-11,-11
Cn1cc(Cl)c(C=C(C#N)C#N)n1,95,89,-15,-12
CCN(CC)c1nc2ccccc2n1Cc1ccc(Cl)cc1,102,105,6,-20
CCOC(=O)c1cccc2c1-c1ccccc1/C2=N/O,101,104,-2,10
CS(=O)(=O)N1CCN(C(=O)Cc2ccc(-c3ccccc3)cc2)CC1,101,104,-6,5
C=CCC(Nc1ccccc1C)c1ccc(Cl)cc1 (stereo not drawn),103,106,10,-20
NC1=NC(=O)C(CC(=O)Nc2cccc(C(F)(F)F)c2)S1 (stereo not drawn),99,104,-14,4
Cc1cc(C(=O)COC(=O)c2ccc(S(=O)(=O)N3CCCCC3)cc2)c(C)n1CC1CCCO1 (stereo not drawn),109,102,-5,-13
CC1CC(C)CN(C(=O)C(C)Sc2nnc(N)s2)C1 (stereo not drawn),nt,nt,-5,-15
COc1ccccc1C1=NOC(C(=O)NCCCn2ccnc2)C1 (stereo not drawn),99,103,20,-21
O=C(Nc1ccc(C(F)(F)F)cc1)C1CCc2ccccc2O1 (stereo not drawn),104,96,-7,-20
CCn1c(Cc2ccccc2)nnc1SCC(=O)N(C)C1CCCCC1,103,102,-8,-11

# Continuation.
SMILES,Polio RdRp inh,Polio RdRp inh intensity,Mtb MbtI inh,Mtb MenB inh
COc1ccc(/C=C2\Sc3ccccc3NC2=O)cc1,100,103,-16,-23
Cc1cc2nc(N)nc(N)n2n1,101,101,10,20
COCCN=Cc1c(NCCOC)nc2ccccn2c1=O,104,101,-134,-38
COc1ccc(NC(=O)C2=CC(c3cccc(OC)c3)=NS(=O)(=O)N2C)cc1,101,102,-2,-34
CCN(CC)S(=O)(=O)c1ccc(C(=O)Nc2ccccc2Cl)cc1,103,98,0,nt
C=CCNC(=O)C(C)N1c2cccc3cccc(c23)S1(=O)=O (stereo not drawn),103,101,-9,-17
Cc1cc(/C=N/NC(=S)NC(C)C)c(C)n1CC(C)C,99,101,1,-28
CCOC(=O)c1c(NC(=O)CSc2nnc(-c3cccnc3)n2N)sc(C(=O)N(C)C)c1C,107,99,-6,-16
CC1CCCCN1C(=O)CCS(=O)(=O)c1ccc2c(c1)NC(=O)CO2 (stereo not drawn),101,100,-23,-10
Cc1nc2ccccc2n1CCNC(=O)NC1CCCCC1,103,104,5,2
Cc1ccc(CN2C(=O)COc3cc(NC(=O)c4ccncc4)ccc32)cc1,103,103,9,-31
CCc1nnc(NC(=O)C(CC(C)C)N2C(=O)c3ccccc3C2=O)s1 (stereo not drawn),101,106,-4,-34
Cc1cc(C(=O)COc2ccc(-n3ccnc3)cc2)c(C)n1-c1ccc2c(c1)OCO2,nt,nt,14,-4
O=C(NCCc1ccccc1)c1ccccc1CN1C(=O)c2ccccc2C1=O,101,105,15,-32
CSc1cccc(N2CC(C(=O)N3CCCCC3C(N)=O)CC2=O)c1 (stereo not drawn),105,106,-4,-19
COc1ccc(-c2noc(N3CCC(C(=O)N(C)c4ccccc4)CC3)n2)cc1,105,106,-8,-24
NS(=O)(=O)c1ccc(CNC(=S)NC2CCCC2)cc1,102,102,-3,-11
CC(C)NC(=O)c1ccc(COCC(F)(F)F)cc1,99,102,-5,-17
CCCCn1nc(C(=O)Nc2nc(SC)ns2)ccc1=O,105,107,-25,-31
C/C(=N\NC(=O)c1sc2ccccc2c1Cl)c1ccco1,102,104,-21,-50
CCCCc1nnc(NC(=O)c2c(OC)cccc2OC)s1,100,101,nt,2
CCSc1nnc2c(n1)OC1(CCCC1)Nc1ccccc1-2,99,106,2,-9
Cc1cc2cc(C(=O)O)ccc2o1,101,102,8,22
Cc1c(C(=O)NNc2ncnc3sc4c(c23)CCCC4)oc2ccccc12,104,111,-5,-21
COC(=O)/C(C#N)=C(\C)N,100,101,-4,-16

# (next part)
SMILES,Polio RdRp inh,Polio RdRp inh intensity,Mtb MbtI inh,Mtb MenB inh
C1=C(C(c2nnnn2C2CCCCC2)N2CCCCC2)COc2ccccc21 (stereo not drawn),100,100,-19,19
CC(C)(C)c1cc(/C=C(\C#N)C(N)=S)cc(C(C)(C)C)c1O,114&116,119&165,-2,-13
CCCCOc1ccc(NC(=O)CCSc2nccn2C)cc1,103,101,16,-22
C(=N\NC1=Nc2cccc3cccc1c23)/c1ccccn1,129,143,8,-247
O=C(NCc1cn2ccccc2n1)c1cccc(C(F)(F)F)c1,105,107,-14,-95
O=C(/C=C/c1ccccc1)N1CCCC1=O,100,103,48,12
FC(F)(F)c1ccccc1C1NCc2ccccc2-n2cccc21 (stereo not drawn),112,115,nt,-26
COc1cccc(CNCC(C)O)c1OC (stereo not drawn),111,112,nt,-2
Cc1nc2ccn(Cc3cccnc3)c(=O)c2cc1C(=O)Nc1ccccc1,100,103,-12,-7
COc1ccc(/C(C)=N/NC(=O)Cc2c(C)nc(C)[nH]c2=O)cc1,104,101,2,-17
CC(C)Sc1n[nH]c(=S)n1N,83*,88*,98*,-74
CCn1c(SCC(=O)NC(C)(C#N)C(C)C)nnc1-c1ccccc1 (stereo not drawn),109,114,-9,4
CCOc1ccccc1NC(=O)c1ccccc1C,98,100,2,-27
CCCOC(=O)Nc1nnc(CCC)s1,102,103,-3,-56
CCOC(=O)c1c(C)[nH]c(C)c1C(=O)COC(=O)CSc1nnc(-c2ccco2)n1CC,108,116,1,-20
CC(=O)NC1C(Oc2ccccc2)OC(COC(C)=O)C(OC(C)=O)C1OC(C)=O (stereo not drawn),104,99,-4,-5
O=C(NCC1CCN(Cc2cccc(Cl)c2)CC1)Nc1ccc(Cl)cc1,101,102,-12,6
CC1CCN(C(=O)CSCC(=O)O)CC1,90,100,5,-57
CCN1C(=O)/C(=C/c2ccc(NC(C)=O)cc2)SC1=S,105,105,-12,nt
O=C(CCc1ccccc1)NNc1ccc(F)cc1,104,100,7,-7

# 7 entries from above, with tabs.
Molecule	Polio RdRp inh	Polio RdRp inh intensity	Mtb MbtI inh	Mtb MenB inh
COc1ccc(/C(C)=N/NC(=O)Cc2c(C)nc(C)[nH]c2=O)cc1	104	101	2	-17
C1=C(C(c2nnnn2C2CCCCC2)N2CCCCC2)COc2ccccc21 (stereo not drawn)	100	100	-19	19
O=C(CCc1ccccc1)NNc1ccc(F)cc1	104	100	7	-7
CCOc1ccccc1NC(=O)c1ccccc1C	98	100	2	-27
O=C(NCc1cn2ccccc2n1)c1cccc(C(F)(F)F)c1	105	107	-14	-95
CCn1c(SCC(=O)NC(C)(C#N)C(C)C)nnc1-c1ccccc1 (stereo not drawn)	109	114	-9	4
C(=N\NC1=Nc2cccc3cccc1c23)/c1ccccn1	129	143	8	-247

# High-throughput results from PubChem BioAssay.
